# gsp agonist = qHTS for Agonist of gsp, the Etiologic Mutation Responsible for Fibrous Dysplasia/McCune-Albright Syndrome: qHTS | gsp mutant cells, cAMP HTRF, 30 min; control for the full effect not named in the record | 0.13% of 340,000 active | Potency, µM (doses to about 76.9 µM), for the others: at the top dose activation (cAMP increase), hits mostly activators; active = well fitted activation curve with a large enough effect; inconclusive = small, poorly fitted or top-dose-only effect, or another doubt; inactive = no such curve, though single readings can be large or run the other way; cell line not stated here;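 also: phosphodiesterase inhibitor Ro 20-1724 added with compounds to block cAMP breakdown; potency is read from the fitted curve at half-maximal effect; nearly all actives have a fitted effect of over 60% in size; about a fifth of the inactives were tested at one dose only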
#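 Cells stably selected in G418 were plated at 2000/well, grown 16-24 hr, then given compounds in DMSO with the PDE inhibitor […] (300 uM solution added) for 30 min at 37C; cAMP was read by HTRF.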
# D2 agonist = Beta-Arrestin HTS for Positive Allosteric Modulators of the Human D2 Dopamine Receptor: Agonists. AID 624465, 2012. D(2) dopamine receptor (Homo sapiens), P14416. 0.084% of 360,000 active. DiscoveRx PathHunter D2 beta-arrestin, luminescence, 90 min; 100% = 57 uM dopamine signal. activation, % (test concentration not listed); in the data active = activation above about 40%; inconclusive = about 15% to 40%; inactive = below about 15%; also: compound concentration not given in the record; the text of the record calls up to 30% inactive
# Target sequence (P14416 whole entry, looked up): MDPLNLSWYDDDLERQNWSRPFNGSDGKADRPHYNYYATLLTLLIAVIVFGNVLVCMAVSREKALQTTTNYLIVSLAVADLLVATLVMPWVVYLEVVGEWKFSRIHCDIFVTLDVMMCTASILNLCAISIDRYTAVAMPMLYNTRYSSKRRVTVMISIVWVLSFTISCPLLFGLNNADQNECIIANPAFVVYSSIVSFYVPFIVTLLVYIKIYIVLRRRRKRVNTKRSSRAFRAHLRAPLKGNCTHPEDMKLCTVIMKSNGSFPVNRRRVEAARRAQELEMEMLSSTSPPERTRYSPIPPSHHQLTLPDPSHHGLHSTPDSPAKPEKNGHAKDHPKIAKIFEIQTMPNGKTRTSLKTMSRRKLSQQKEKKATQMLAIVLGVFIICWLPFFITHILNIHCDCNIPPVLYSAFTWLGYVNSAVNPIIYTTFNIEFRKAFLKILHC
#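 Agonist mode: compounds alone added to overnight-plated D2 PathHunter cells for 90 min at 37 C, with 57 uM final dopamine (EC100) defining full response. Beta-arrestin recruitment detected by chemiluminescent reagent, read after 1 h at ambient temperature.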
# ClpP mod = qHTS Assay for Activators of ClpP; Potency, µM (doses to about 57.5 µM), without a hit: at the top dose activity change, negative = active; 1.9% of 340,000 active; purified B. subtilis ClpP, FRET peptide cleavage, 20 min; AID 651965, 2013; ATP-dependent Clp protease proteolytic subunit (Bacillus subtilis (strain 168)), P80244; active = well fitted falling curve with a large enough effect; inconclusive = small, poorly fitted or top-dose-only effect; inactive = no such curve, though single readings can be large or run the other way; also: potency is read from the fitted curve at half-maximal effect; the source files actives as falling curves though it sought activators and does not explain the sign; nearly all actives have a fitted effect of over 65% in size; many hits overshoot -100%
# Target sequence (P80244 whole entry, looked up): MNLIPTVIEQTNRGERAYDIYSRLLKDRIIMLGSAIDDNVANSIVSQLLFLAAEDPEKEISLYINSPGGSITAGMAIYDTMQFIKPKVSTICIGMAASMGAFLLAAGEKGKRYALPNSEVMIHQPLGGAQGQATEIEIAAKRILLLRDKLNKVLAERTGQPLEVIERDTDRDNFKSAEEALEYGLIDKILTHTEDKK
#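 Buffer: 100 mM Tris/HCl pH8, 100 mM KCl, 0.05% low protease BSA, 2.5% glycerol, 0.01% Tween-20. ClpP 10 microg/mL final; 20 min RT; delta FRET normalized to ADEP and DMSO controls.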
# PINK1 expr mod = A Quantitative High throughput Screen to Identify Chemical Modulators of PINK1 Expression | PINK1 immunofluorescence, high-content cytometry, 24 h | Potency, µM (doses to about 76.6 µM), for inactives: at the top dose activation (PINK1 increase), hits mostly activators | 0.2% of 410,000 active | AID 624263, 2012; active = well fitted activation curve with a large enough effect; inconclusive = small, poorly fitted or top-dose-only effect; inactive = flat fitted curve, though single readings scatter; cell line not stated here;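 also: potency is read from the fitted curve at half-maximal effect; % of control where 0% means no effect; nearly all actives have a fitted effect of over 65% in size; a mitochondrial uncoupler was the plate control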
#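 Readout is PINK1 immunofluorescence, quantified alongside mitochondrial, cell and nuclear markers by laser-scanning microplate cytometry. Cells from a stable line were exposed to compound titrations (5 concentrations) for 24 hours, with CCCP controls.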
# Menin MLL FP FL = qHTS Assay for Inhibitors Targeting the Menin-MLL Interaction in MLL Related Leukemias: Competition With Fluorescein Labeled MLL-derived Peptide. 290,000 tested, under 10 active. Fluorescence polarization, fluorescein-MLL peptide displacement from menin. AID 1766, 2009. FP activity change, % at 61.4 µM; inconclusive = falling polarisation curve, or a change in total fluorescence; inactive = total fluorescence flat and polarisation flat or rising; no compound was filed as active; the % refers to the polarisation; negative = inhibition;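 also: % of control where 0% means no effect; inhibitors lower the polarisation; unlabelled MLL peptide was the positive control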
# gsp antag = qHTS for Antagonists of gsp, the Etiologic Mutation Responsible for Fibrous Dysplasia/McCune-Albright Syndrome: qHTS. Potency, µM (series often up to 76.9 µM), without a hit: at the top dose activity change, negative = inhibition, actives largely listed as inhibitors. gsp-mutant cells, cAMP HTRF, 30 min; control for the full effect not named in the record. 0.4% of 340,000 active; active = falling curve of any shape with a large fitted effect; inconclusive = falling curve, mostly with a smaller effect; inactive = flat or rising curve; cell line not stated here;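 also: intracellular cAMP measured with PDE inhibitor Ro 20-1724 present during compound exposure; potency is read from the fitted curve at half-maximal effect; % is scaled to controls: 0 for no effect and ±100 for the full control effect; nearly all actives have a fitted effect of over 65% in size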
#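 Measurement of cellular cAMP by homogeneous time-resolved fluorescence following a 30 min compound exposure at 37C. The PDE inhibitor […] was present throughout; the assay buffer was DPBS with 0.05% BSA and 0.005% Tween 20.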
# Sfp PPTase inh = qHTS Assay for Inhibitors of Bacillus subtilis Sfp phosphopantetheinyl transferase (PPTase); 4'-phosphopantetheinyl transferase ffp (Bacillus subtilis), Q9F4F7; Biochemical Sfp PPTase activity, qHTS; Potency, µM, without a hit: max response, negative = inhibition, usual class: inhibitors; 3.5% of 310,000 active; active = well fitted inhibition curve with a large enough effect; inconclusive = small, poorly fitted or top-dose-only effect, or another doubt; inactive = no such curve, though single readings can be large or run the other way;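 also: the enzyme is Sfp with the accession as filed and its product quenches rhodamine fluorescence; potency is read from the fitted curve at half-maximal effect; 0% = enzyme reaction without inhibitor and -100% = no enzyme wells; top concentration of the series not given in the record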
#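 Fluorescence-quenching assay: 15 nM Sfp-PPTase preincubated 15 min at room temperature with compound, then 5 uM rhodamine-CoA and 12.5 uM BHQ-2-labelled YbbR peptide added. Fluorescence (ex 525/em 598 nm) read at start and after 30 min; difference gives rate.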
# Active calls of the source: *; ? = inconclusive; . = not tested or not shown; & = joins results of further samples; [ ] = another dose, or the depositor's remark. An unsorted share of the library. About 5.1% of those tested had a hit in this group.
# Fields – ClpP mod	D2 agonist	Menin MLL FP FL	Sfp PPTase inh	gsp agonist	PINK1 expr mod	gsp antag
> CC1Cc2cc(/C(O)=C3\C(=O)C(=O)N(CCN4CCOCC4)C3c3ccccc3F)ccc2O1 (stereo unspecified)
    -19%	-1.5	-0.6	31%[activator]	?	-1.3%	-9%
> O=C(COC(=O)[C@@H]1CC(O)CN1S(=O)(=O)c1ccccc1[N+](=O)[O-])c1ccccc1 (stereo partly specified)
    .	-2.9	-2.3	15%	-56%[inhibitor]	0.2%	-1%
> Cc1cc(C)c2cc(CN(Cc3ccc4c(c3)OCO4)Cc3nnnn3Cc3ccco3)c(=O)[nH]c2c1
    -9.6%	-5.5	14	14µM*	38%	-1.3%	-11%
> [O-]/[N+](=C/c1ccc(F)cc1)c1ccc(Cl)cc1
    -1.6%	-0.1	1.2	40µM*	-5%	-1.0%	15%
> Cc1cc(Cl)c2oc(C(=O)N3CCN(c4ccncc4)CC3)c(C)c2c1
    -1.6%	-2.8	.	.	?	-1.0%	1%
> COC(=O)c1c(C(=O)OC)n(CCCN)c2ccc(C)cc12
    3.3%	-3.3	2.6	13%	-25%	-6.7%[38.3 µM]	9%
> CNC(=O)c1c(NC(=O)C2=COCCO2)sc2c1CCN(C(=O)OC)C2
    -3.7%	-1.6	.	.	?	-0.1%	0%
> CC(C)(C)NC(=O)C(c1ccc(O)cc1)N(Cc1ccco1)C(=O)Cn1nnc(-c2cccs2)n1 (stereo unspecified)
    -1.2%	-0.6	2.1	-23%	-17%	-1.9%[38.3 µM]	-8%
> CCOc1ccc(N(C(=O)c2cnsn2)C(C(=O)NC2CCCCC2)c2ccncc2)cc1 (stereo unspecified)
    .	-0.2	1.9	18%	12%[15.4 µM]	5.6%	-8%
> O=C(Nc1cccc(-c2cscn2)c1)C1CCN(Cc2ccccn2)CC1
    0.7%	-0.3	-1.0	7%	5%	2.3%	-1%
> CCOC(=O)/C(=N/Nc1ccccc1)Sc1nnnn1-c1ccc(C)cc1
    -3.2%	0.0	2.0	0%	-1%[15.4 µM]	-0.9%	3%
> CC1(C(=O)NS(=O)(=O)c2cccc(OC(F)F)c2)CCN1C(=O)CC(c1ccccc1)c1ccccc1 (stereo unspecified)
    2.5%	4.8	.	.	.	2.6%	.
> COc1cccc(/C=C/C(=O)NCc2cn3cc(Cl)ccc3n2)c1OC
    .	-5.1	1.1	5%	1%[15.4 µM]	0.5%	12%
> CC1(C(=O)Nc2ccc3ccccc3c2)CCC(=O)N1CCOc1ccccc1 (stereo unspecified)
    -4.8%	-4.4	.	.	.	-0.9%	.
> Cc1cc(C(=O)N2CCC2(C)C(=O)Nc2ccc3[nH]ncc3c2)nn1C (stereo unspecified)
    -0.5%	-3.7	.	.	.	0.9%	.
> CC(C)Oc1ccc(F)cc1-c1cc(C(=O)N2CCc3ccccc3C2)[nH]n1
    -8.5%	-0.2	.	.	.	0.1%	.
> Cc1cc(-c2n[nH]c(=S)n2/N=C/c2cc([N+](=O)[O-])ccc2Cl)n[nH]1
    -0.4%	0.9	3.3	-26%	?	3.0%	-8%
> O=C(COC(=O)CCN1C(=O)C2CC=CCC2C1=O)Nc1ccc(Cl)cc1F (stereo unspecified)
    -0.7%	4.7	.	.	-26%	0.3%	-1%
> CCOC(=O)C(C)c1c(C)[nH]c(=S)[nH]c1=O (stereo unspecified)
    -0.2%	-4.5	4.6	-4%	0%	-0.4%	8%
> CS(=O)(=O)OCCCCOS(C)(=O)=O
    -1.1%	-6.1	-3.5&-3.4	7%&-32%	.	0.3%	-5%
> O=C(O)c1ccccc1-c1ccccc1C(=O)NNc1ccccc1
    -0.7%	-3.8	-2.1	6%	-5%	0.2%	10%
> CCOc1cc(CN2CCC(N3CCC(C(=O)NC4CC4)CC3)CC2)ccc1O
    -1.2%	-1.2	.	.	?	-0.2%	.
> O=[N+]([O-])c1ccc(NCc2ccccn2)nc1
    .	3.0	3.7	11%	-8%	-1.3%	-9%
> COc1ccc(NC(=O)NCCc2c[nH]c3ccccc23)c(OC)c1
    -2.8%	-3.4	5.7	8%	4%	2.7%	-4%
> O=C(Cn1cnc2ccccc2c1=O)c1ccc(OC(F)F)cc1
    .	0.1	-1.8	9%	?	-0.9%	-4%
> Cc1ccc(S(=O)(=O)Nc2cccc3c2CCCC3)cc1
    -0.4%	0.5	0.3	-1%	6%	1.7%	-5%
> OCC1CCCN(c2nc(CN3CCCCC3)nc3scc(-c4ccccc4)c23)C1 (stereo unspecified)
    -0.1%	-5.2	0.2	9%	?	1.0%	0%
> CN1CCN(c2ccc(NC(=O)c3ccc(-c4ccccc4F)o3)cc2)CC1
    -1.8%	2.9	.	.	-37%[inhibitor]	-1.8%	6%
> Cc1ccc(-n2cnnn2)c(S(=O)(=O)N2CCOCC2)c1
    0.3%	0.4	2.5	3%	11%	2.8%[38.3 µM]	1%
> O=C(Nc1nnc(SCC(=O)N2CCOCC2)s1)C1CC(=O)N(c2ccc(F)cc2)C1 (stereo unspecified)
    0.2%	-1.1	.	?	-37%[inhibitor]	-1.4%	-2%
> COC(=O)CSc1nnc(-c2ccccn2)n1Cc1ccco1
    -1.2%	-0.1	0.8	-16%	-4%[15.4 µM]	0.4%	5%
> COc1ccccc1Nc1nc(N(C)c2ccccc2)nc(N)c1[N+](=O)[O-]
    -0.1%	-2.5	-0.1	14%	-22%	6.9%	6%
> Cc1cccnc1NC(=O)CNC(=O)c1ccccc1
    -3.3%	-1.3	.	.	?	1.0%	4%
> CC12CC3CC(C)(C1)CC(C(=O)N1CCN(C(=O)C4CCCO4)CC1)(C3)C2 (stereo unspecified)
    0.5%	5.0	-0.5	14%	-38%[inhibitor]	2.4%	5%
> Cc1cc(NC(=O)C2CCC2)n(-c2ccccn2)n1
    -0.9%	0.1	-0.5	11%	21%	-0.6%	5%
> O=C(CN(c1ccc2c(c1)OCCO2)S(=O)(=O)c1ccccc1)NCc1ccco1
    -1.2%	-1.9	-1.0	23%	-44%[inhibitor]	-0.6%	-17%
> O=C(COC(=O)/C=C/c1ccccc1)Nc1cc(C(F)(F)F)ccc1N1CCOCC1
    .	-4.8	0.8	-4%	18%[15.4 µM]	4.4%	4%
> CCOC(=O)c1ccc(-n2cnc(-c3ccc([N+](=O)[O-])cc3)c2)cc1
    -0.1%	6.1	.	.	.	-0.9%	.
> O=[N+]([O-])c1ccccc1S(=O)(=O)c1ccccc1[N+](=O)[O-]
    1.3%	9.2	5.6	4%	?	1.2%	14%
> CCNC(=O)CC1SC(=Nc2ccc(C)c([N+](=O)[O-])c2)N(C)C1=O (stereo unspecified)
    -3.2%	-7.6	.	.	5%	1.6%	-1%
> Cc1ccc(NC(=O)CN(C)CC(=O)Nc2ccc(N3CCOCC3)cc2)c([N+](=O)[O-])c1
    -2.6%	-3.9	2.2	-3%	16%[15.4 µM]	-1.5%	-4%
> Cc1ccc(N2CC(C(=O)OCC(=O)NNC(=O)c3ccccc3)CC2=O)cc1 (stereo unspecified)
    21%	2.0	.	.	26%[15.4 µM]	0.1%	0%
> Cc1ccc(CON=C2CCN(c3ncc(C(F)(F)F)cc3Cl)CC2)cc1
    1.9%	-3.9	1.7	12%	5%	11%	-11%
> C/C(=C\c1ccccc1)CN1CCN(c2ccccc2F)CC1
    -0.1%	11	-1.0	?	-6%	-0.7%[38.3 µM]	0%
> CN1CCN(C(=O)c2ccc3c(=O)n(Cc4ccco4)c(=S)[nH]c3c2)CC1
    1.4%	-4.3	1.6	-5%	8%	3.5%	6%
> CCN(CCNC(=O)c1cc(C)nn1-c1ccccc1)c1ccccc1
    0.1%	1.9	3.2	-1%	23%	3.0%	-7%
> Cc1ccc(C)c(NC(=O)CCC(=O)NNC(=O)c2cccs2)c1
    -0.7%	0.1	1.5	4%	20%	0.0%	17%
> Cc1cc(-c2csc(NC(=O)c3ccc(S(=O)(=O)N(C)C)cc3)n2)c(C)n1-c1ccccc1
    0.7%	-2.1	12	11%	-20%	1.6%	?
> Brc1ccc(CSc2ccc3nnc(-c4ccccn4)n3n2)cc1
    .	-2.3	5.0	2%	-7%[15.4 µM]	1.1%	6%
> O=C(CN1CCN(c2ccccn2)CC1)Nc1ccc(Br)cc1
    .	13	8.7	13%	0%	-0.8%	-3%
> Cc1noc(C)c1S(=O)(=O)N1CCC2(CC1)OCCO2
    3.4%	-1.0	-2.3	3%	4%	-0.2%	9%
> CSCCC(NC(=O)c1ccccc1Cl)C(=O)NCC(c1ccc(F)cc1)N1CCOCC1 (stereo unspecified)
    0.1%	5.5	.	.	-27%	0.1%	3%
> COC(=O)c1ccc(N2CCN(S(=O)(=O)c3c(C)cc(C)cc3C)CC2)c([N+](=O)[O-])c1
    -6.7%	-8.9	2.5	8%	-5%[15.4 µM]	-1.0%	-13%
> O=C(CCC(F)(F)F)N1CCCC(N2CCN(c3cccc(Cl)c3)CC2)C1 (stereo unspecified)
    -1.0%	-0.4	.	.	23%	-0.2%	-7%
> CC1(C)CC(NC(=O)c2ccc(F)cc2)CC(C)(C)N1
    -0.7%	-6.1	.	.	-29%	0.2%	.
> COC(=O)c1ccc(CNC(=O)Cn2cnc3c(OCc4ccccc4)ncnc32)cc1
    1.6%	-3.5	.	.	.	1.6%	0%
